Bioassay records: PubChem BioAssay, several laboratories
CBX7 AlphaScr – blocks human CBX7 binding to H3K27me3 peptide. O95931. AlphaScreen His6-CBX7 / biotin-H3K27me3 peptide binding; hits give low values. normalised signal (fraction of DMSO) (no concentration beside the values). 66,000 tested, 1.1% active; in the data active = normalised signal below about 0.5;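 note: 100 nL library stock added to about 20 µL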
Target sequence (O95931 whole entry, looked up): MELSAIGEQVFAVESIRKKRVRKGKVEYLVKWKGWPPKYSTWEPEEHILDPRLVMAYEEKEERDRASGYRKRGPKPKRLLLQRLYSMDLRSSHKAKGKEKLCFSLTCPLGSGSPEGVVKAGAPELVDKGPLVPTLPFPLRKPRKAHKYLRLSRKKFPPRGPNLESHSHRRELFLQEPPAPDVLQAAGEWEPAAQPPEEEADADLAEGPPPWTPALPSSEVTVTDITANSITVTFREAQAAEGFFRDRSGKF
CBX7 AlphaScr z-score – also measured in CBX7 AlphaScr; calls as there; z-score; measured here: z-score of CBX7 signal; some inactives read as strong as hits; reference of the scale not given here;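 same signal on another scale; lower means less binding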
Starred values were filed as active, the others as inactive.

SMILES	CBX7 AlphaScr	CBX7 AlphaScr z-score
COc1ccc(NC(=O)CCCN2C(=O)c3cccnc3C2=O)c(OC)c1	0.96	-0.39
CCN(CC)CCCNC(=O)c1c(-c2ccccc2)noc1C	1.1	2.9
O=C(NCCCc1nc2ccccc2[nH]1)c1cccs1	1.1	0.97
Cc1ccc(Cn2ccc(NC(=O)c3cc(-c4ccc(F)cc4)on3)n2)cc1	1	1.4
Cc1ccc(Cn2nnc3c(=O)n(CC(=O)N4CCCC4)cnc32)cc1	1	0.7
O=S(=O)(c1cccc2nsnc12)N(CCOc1ccc2ccccc2c1)C1CCCCC1	0.71	-6.3
Cc1ccc(-c2cc(C(=O)Nc3ccc(S(N)(=O)=O)cc3)c3ccccc3n2)s1	1.1	2.5
COc1cccc(CN2C(=O)c3ccccc3Sc3ccc(C(=O)NCc4ccc(C)cc4)cc32)c1	0.9	-1.6
COc1cccc(-c2nn(C)c3sc(C(=O)N4CCN(c5ccc(C)cc5)C(C)C4)cc23)c1 (stereo not drawn)	0.84	-4.5
COc1ccc(Cl)cc1NC(=O)c1cc2c(s1)-c1c(C)cccc1OC2	1.1	5
Cc1cccc2nc(COc3ccc(Cl)cc3)cn12	0.81	-2.3
CC(C)(C)c1ccc(-c2nc(N3CCOCC3)c3ccccc3n2)cc1	0.97	-0.34
Cc1ccc2nc(-c3ccc(NC(=O)c4cccnc4)cc3)sc2c1	1	0.44
O=C(Cn1nc(Cc2ccncc2)c2ccccc2c1=O)N1CCN(c2ccccc2F)CC1	1.1	1.4
Cc1cc(C)cc(N(CC(=O)Nc2ccc(Cl)cc2)S(=O)(=O)c2c(C)noc2C)c1	0.96	-0.35
O=C(Nc1c(C(=O)Nc2ccccc2Cl)cnn1-c1ccccc1)c1cccs1	0.94	-0.66
CC(=O)Nc1ccc(N2C(=O)CC(NCCN3CCOCC3)C2=O)cc1 (stereo not drawn)	0.94	-0.7
COc1ccc(N(CC(O)CN2C(=O)NC(C)(C)C2=O)S(=O)(=O)c2ccc(C)cc2)cc1 (stereo not drawn)	1	0.12
Cc1ccc(C)c(-n2c(Cc3cc(=O)[nH]c(=O)[nH]3)nnc2SCC(=O)N2CCCCC2)c1	1	0.0094
CCOC(=O)c1cc(-c2ccccc2)n(-c2cccc(C(=O)NCc3ccccc3OC)c2)c1C	0.81	-4.9
Cc1nnc(NC(=O)c2ccc(S(=O)(=O)N(C)C)cc2)o1	0.012*	-26*
O=C(Cn1ncc2ccsc2c1=O)N1CCN(c2ccc(F)cc2)CC1	0.97	-1.8
Cc1cc(OCC(=O)Nc2ccc3oc(-c4ccncc4)nc3c2)cc(C)c1Cl	1	0.91
COc1ccccc1-c1c(C)nn2c(N3CCN(c4ccccc4)CC3)cc(C)nc12	0.97	-0.18
O=C(NCc1ccccc1)c1ccc2c(c1)N(Cc1ccccc1)C(=O)c1ccccc1S2(=O)=O	1	1.2
CCc1ccc(CNC(=O)c2cc3c(s2)-c2ccccc2OC3)cc1	1.1	2.9
Cc1ccc2c(c1)-c1c(cnn1CC(=O)NCCN(C)Cc1ccccc1)CO2	1.1	1.9
Cc1cccc(Nc2nc(-c3sc(N)nc3C)cs2)c1	0.48*	-10*
Clc1cccc(Nc2nnc(Cc3cccnc3)c3ccccc23)c1	1.1	2.7
O=C(Nc1nc(-c2ccc(F)cc2)cs1)c1cccc(Br)c1	1.2	2.9
COc1ccccc1C(CC(=O)N1CCCC1)c1ccc2c(c1)OCO2 (stereo not drawn)	0.97	-0.1
O=C(NCc1cccnc1)c1nn2c(c1Br)NC(c1ccccc1)CC2C(F)(F)F (stereo not drawn)	0.98	-0.17
Cc1ccc(-n2c(=O)cc(N3CCN(c4ccccc4F)CC3)[nH]c2=O)cc1	1.1	2.1
COc1cc(-c2nc(-c3ccccc3)c(-c3ccccc3)[nH]2)cc(Br)c1OCc1ccccc1	0.8	-8.3
CCOc1ccccc1N(C)C(=O)c1ccc2c(=O)n3c(nc2c1)CCCCC3	0.99	-0.015
Cc1ccc(CNC(=O)c2cnn3c(C(F)(F)F)cc(-c4ccccc4)nc23)cc1	1	1

As a short view, some entries already given.
SMILES	CBX7 AlphaScr	CBX7 AlphaScr z-score
COc1ccc(NC(=O)CCCN2C(=O)c3cccnc3C2=O)c(OC)c1	0.96	-0.39
CCN(CC)CCCNC(=O)c1c(-c2ccccc2)noc1C	1.1	2.9
O=C(NCCCc1nc2ccccc2[nH]1)c1cccs1	1.1	0.97
Cc1ccc(Cn2ccc(NC(=O)c3cc(-c4ccc(F)cc4)on3)n2)cc1	1	1.4
Cc1ccc(Cn2nnc3c(=O)n(CC(=O)N4CCCC4)cnc32)cc1	1	0.7

The results go on:
SMILES	CBX7 AlphaScr	CBX7 AlphaScr z-score
CCc1nc2ccccc2c(NC(=O)CN2CCN(CCO)CC2)c1C	1.1	3
Cc1ccc(CSc2nc3ccncc3n2Cc2cccc(F)c2)cc1	0.95	-1.3
O=C(Nc1cccc2ccccc12)c1csc2c1CCCC2	1	1.9
COc1ccc(C(=O)N(Cc2ccc(Cl)cc2)C2CCS(=O)(=O)C2)cc1 (stereo not drawn)	0.92	-0.083
CCC(=O)N1c2ccc(S(=O)(=O)NCC3COc4ccccc4O3)cc2CC1C (stereo not drawn)	0.81	-0.78
O=C(NCc1ccc(Cl)cc1)c1cccc2c1C(=O)N(C1CCCCC1)C2	1.1	1.5
COc1ccc(C2=NOC(C(=O)NCCCn3ccnc3)C2)cc1 (stereo not drawn)	0.89	-1.4
CCN1CCCC(NS(=O)(=O)c2ccc(Cl)c(Cl)c2)C1 (stereo not drawn)	0.98	-0.74
CCn1c(C(=O)N2CCC(C(=O)NCCc3ccccc3)CC2)cc2sccc21	0.68	-1.4
CC(C)CCNC(=O)CN1C(=O)COc2ccccc21	1.1	0.82
O=C(CCCn1c(=O)[nH]c2ccc(Br)cc2c1=O)NCc1ccc(Cl)cc1	0.99	-0.38
Cc1ccccc1C(=O)Nc1sc2c(c1C(=O)N1CCCC1)CCC2	1.1	0.66

Among those listed so far, two have an aryl thioether with sulfur outside any ring:
SMILES	CBX7 AlphaScr	CBX7 AlphaScr z-score
Cc1ccc(C)c(-n2c(Cc3cc(=O)[nH]c(=O)[nH]3)nnc2SCC(=O)N2CCCCC2)c1	1	0.0094
Cc1ccc(CSc2nc3ccncc3n2Cc2cccc(F)c2)cc1	0.95	-1.3

Further entries.
SMILES	CBX7 AlphaScr	CBX7 AlphaScr z-score
Cc1c(C(=O)NCc2cccnc2)oc2ccc(S(=O)(=O)N3CCCC(C)C3)cc12 (stereo not drawn)	0.97	-0.21
O=C1CN(C(=O)c2cccs2)C(c2ccc(F)cc2)c2cc(Cl)ccc2N1 (stereo not drawn)	0.72	-5.1
O=C(Cn1c(=O)[nH]c2ccccc2c1=O)NCCCN1CCOCC1	1.1	1.7
CN(C)S(=O)(=O)c1ccc(C(=O)NCCN=C2NS(=O)(=O)c3ccccc32)cc1	1.1	1.8
O=C(c1ccc2c(c1)N(Cc1cccc(F)c1)C(=O)c1ccccc1S2)N1CCCCC1	0.89	-1.4
COCCCNC(=O)c1nc(-c2ccccc2F)oc1C	1	0.64
CCc1ccc(NC(=O)CNC(=O)c2cn(-c3ccccc3OC)c(=O)c3ccccc23)cc1	1.1	1
CCN(C(=O)Cc1c(C(=O)O)[nH]c2ccccc12)c1ccc(C)c(C)c1	0.79	-0.84
Cc1ccc(Cn2c(C(=O)Nc3cc(F)ccc3F)cc3sccc32)cc1	0.97	-0.86
COc1ccc(C2CC(=O)c3cnc(NCCCOC(C)C)nc3C2)cc1 (stereo not drawn)	1.1	0.85
COc1ccc(OC)c(NC(=O)Cn2cnc3c(nnn3Cc3ccc(C)cc3)c2=O)c1	0.86	-2.3
COc1ccc(-n2c3c(cc(C(=O)Nc4ccc(Cl)cc4)c2=O)C(=O)CC(C)(C)C3)cc1	1.2	2
CN1CCN(c2nc(-c3ccccc3)cc(C(F)(F)F)n2)CC1	1.3	3.2
Cc1cccc(N2CC(c3nc4ccccc4n3CC(=O)N(c3ccccc3)C(C)C)CC2=O)c1C (stereo not drawn)	0.94	-0.35
Fc1ccc(N(Cc2nc3ccccc3[nH]2)Cc2nc3ccccc3[nH]2)cc1	1	0.42
COc1ccc(OC)c(-c2cc(C(=O)NC3CCCC3)no2)c1	1	0.27
COc1ccc(C(O)Cc2nc3ccccc3n2Cc2ccc(Cl)cc2)cc1 (stereo not drawn)	0.97	-0.61
O=C(Nc1nc2ccccc2n1CCN1CCCCC1)c1ccccc1	0.91	-3.6
COc1ccc(C2C(=O)N(CCc3ccccc3)CC(=O)N2C2CCCC2)cc1 (stereo not drawn)	1.3	1.4
CN(CCC#N)C(=O)c1ccc2c(c1)N(Cc1ccc(F)cc1)C(=O)c1ccccc1S2=O (stereo not drawn)	0.82	-2.5
Cc1cc(C)nc(NC2=NCC(=O)N2c2ccc(F)cc2)n1	0.81	-1.3
Cc1ccc2c(c1)-c1c(cnn1CC(=O)NCCCN1CCC(C)CC1)CO2	1.1	3.5
COc1ccc(OC2C(=O)N(CCc3ccc(OC)c(OC)c3)C2c2cccc(F)c2)cc1 (stereo not drawn)	0.97	-0.53
CCOC(=O)c1cnc2c(C)c(Cl)ccc2c1Nc1ccccc1CC	1.2	1.4
Cc1ccc(-c2nc(CSCC(=O)N3CCC(C(N)=O)CC3)c(C)o2)cc1	1	0.049
Cc1noc(C)c1C(=O)Nc1nnc(-c2ccccc2)s1	1	1.3
CCOC(=O)c1c(NC(=O)c2cccc(Br)c2)sc2c1CCCCC2	1.7	28
CCCc1noc(-c2cc(-c3ccncc3)nc3ccccc23)n1	0.44*	-6.4*
COc1ccccc1NC(=O)c1cnn(-c2ccccc2)c1NC(=O)c1ccccc1Cl	0.99	-0.16
Cc1cc(NCc2ccc(F)cc2)n2nc(C)nc2n1	0.94	-1.2
O=C(Cn1ccc2ccccc2c1=O)NCC(=O)Nc1ccc2c(c1)OCCO2	1	0.49
CCOC(=O)c1nnn(-c2nonc2N)c1CNc1ccc(OC)cc1	0.79	-3.3
O=C(Cc1ccc(NC2=NC3CS(=O)(=O)CC3S2)cc1)N1CCN(c2ccccn2)CC1 (stereo not drawn)	1.1	1.5
CC(C)c1ccc(CNc2ccc3c(c2)ncn3C(C)(C)C)cc1	0.29*	-20*
Cc1[nH]c2ccccc2c1CCNS(=O)(=O)c1cccc(S(=O)(=O)c2ccc(Cl)cc2)c1	0.73	-0.27
Cc1ccc2nc(-c3cccs3)c(Nc3ccc(Cl)cc3)n2c1	0.87	-1.7
Cc1cc2nc(Cc3ccc4c(c3)OCO4)c(=O)[nH]c2cc1C	0.95	-1.1
O=C(CN1C(=O)COc2ccccc21)Nc1cccnc1	0.81	-8.2
Nc1nonc1-c1nc2ccccc2n1Cc1ccc(Cl)cc1	0.95	-0.63
Cc1ccc(C)c(Cn2c(SCc3ccc(F)cc3)nc3ccncc32)c1	0.89	-5.2
CCN(CC)c1ccc(C2Nc3ccccc3NC3=C2C(=O)CCC3)cc1 (stereo not drawn)	0.92	-0.82
COc1ccc(N(CC(=O)NCCc2ccccc2)S(=O)(=O)c2c(C)nn(C)c2C)cc1	1.1	0.58
COc1ccc(Nc2cc(C(=O)N3CCC4(CC3)OCCO4)c3ccccc3n2)cc1	0.9	-0.1
O=C1CC(Nc2ccc(F)cc2)C(=O)N1c1ccc(Br)cc1 (stereo not drawn)	0.51	-11
O=C(Nc1c(C(=O)Nc2ccccc2)cnn1-c1ccccc1)c1cccc(F)c1	1	0.79
Cc1ccc(-c2nc(CS(=O)(=O)CC(=O)NC(C)c3ccccc3)c(C)o2)cc1 (stereo not drawn)	1	0.068
COCCCNC(=O)CN1C(=O)COc2ccc(S(=O)(=O)N3CCOCC3)cc21	1	1.1
COc1ccc(-n2nc(C(=O)NCC(=O)NC3CCCCCC3)c3ccccc3c2=O)cc1OC	0.95	-0.97
COc1ccc(C(=O)NCc2nnc(SCC(=O)Nc3cc(C)on3)o2)cc1OC	0.96	-1.5
CN1CCN(C(=O)c2cc3c(n(-c4ccccc4)c2=O)CC(C)(C)CC3=O)CC1	1	1.4
Cc1cccc(C)c1NS(=O)(=O)c1ccc2nc(-c3ccccc3)[nH]c2c1	0.85	-0.2
CC(C)NC(=O)c1ccc2c(c1)N(Cc1cccc(Cl)c1)C(=O)c1ccccc1S2(=O)=O	1.1	1.8
O=C(O)c1c2c(nc3ccccc13)CCCC2	1	0.076
COc1ccc(OC)c(NC(=O)c2cc3sc(Cl)cc3n2C)c1	0.98	-0.82
COc1cc(OC)cc(C(=O)N2CC(=O)Nc3ccc(F)cc3C2c2ccc(F)cc2)c1 (stereo not drawn)	0.79	-3.9
CCC1=Nc2cc(C(=O)NCCc3ccc(OC)c(OC)c3)ccc2Sc2ccc(C)cc21	1	0.87
COC(=O)c1c[nH]n2c(NC3CCC(C)CC3)c(-c3ccc(F)cc3)nc12 (stereo not drawn)	0.25*	-0.84*
O=C(Nc1ccc2oc(-c3ccc(F)cc3Cl)nc2c1)c1ccc(Cl)cc1	0.89	-1.7
Cc1ccccc1Cc1c(C)nc2nc(SCC(=O)NCC3CCCO3)nn2c1C (stereo not drawn)	1.1	1.1

Quoted at random: 6 compounds from above, in no set order.
SMILES	CBX7 AlphaScr	CBX7 AlphaScr z-score
COc1ccc(C(=O)NCc2nnc(SCC(=O)Nc3cc(C)on3)o2)cc1OC	0.96	-1.5
CC(C)NC(=O)c1ccc2c(c1)N(Cc1cccc(Cl)c1)C(=O)c1ccccc1S2(=O)=O	1.1	1.8
Cc1cccc(C)c1NS(=O)(=O)c1ccc2nc(-c3ccccc3)[nH]c2c1	0.85	-0.2
COC(=O)c1c[nH]n2c(NC3CCC(C)CC3)c(-c3ccc(F)cc3)nc12 (stereo not drawn)	0.25*	-0.84*
O=C(O)c1c2c(nc3ccccc13)CCCC2	1	0.076
CCC1=Nc2cc(C(=O)NCCc3ccc(OC)c(OC)c3)ccc2Sc2ccc(C)cc21	1	0.87

An excerpt. The share of hits here may be higher or lower than overall.
